WNV NS2B-NS3 inh: inhibitors of WNV NS2B-NS3 protease, primary screen, biochemical, fluorogenic substrate | Genome polyprotein (West Nile virus), P06935 | fluorogenic substrate Ex360/Em465; hits give low values | z-score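 (tested at a level between 10 and 100 µM)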 | 0.18% of 65,000 active | AID 577, 2007;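 active means z-score at -3 or under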;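 further: score is relative to mean and spread of the compound wells of a plate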
Target sequence (P06935 1371-1501 limits assumed): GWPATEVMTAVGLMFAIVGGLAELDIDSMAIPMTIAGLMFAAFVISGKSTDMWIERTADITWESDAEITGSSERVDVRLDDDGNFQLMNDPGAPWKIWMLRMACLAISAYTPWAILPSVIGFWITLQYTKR
Target sequence (P06935 1502-1679 limits assumed): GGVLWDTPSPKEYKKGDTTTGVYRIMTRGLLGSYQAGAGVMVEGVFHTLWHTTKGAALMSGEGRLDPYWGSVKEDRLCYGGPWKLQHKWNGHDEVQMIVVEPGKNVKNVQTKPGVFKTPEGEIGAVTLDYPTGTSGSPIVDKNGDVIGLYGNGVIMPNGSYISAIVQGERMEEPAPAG
Hsc70: Hsc70 inhibitors, probe displacement, primary screen, biochemical, fluorescence polarization (AID 568). Hsc70 fluorescence polarization, probe displacement; higher % means a stronger effect; strong numbers were not always called active. 83,000 tested, under 10 active. Heat shock cognate 71 kDa protein (Homo sapiens). displacement, % at 20 µM, or IC50 in µM where a hit was titrated;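 active means displacement above 50% without optical interference and an IC50 on retest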;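 further: ATPase domain with a fluorescein-tagged ATP probe; 0% = vehicle and 100% = excess ADP; read after one hour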
MT1-MMP reporter: inhibitors of MT1-MMP promoter transcription, cell-based, luciferase reporter, luminescence (AID 618) | MT1-MMP promoter luciferase reporter cells, luminescence | calls from a first round at 10 µM; hits with a dose series show EC50 in µM | 0.62% of 87,000 active;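 active means over half of the reporter light lost at 10 µM or EC50 under 50 µM; inactive means the rest and hits that failed the dose series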;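 further: actives suppress MT1-MMP promoter-driven transcription so potencies describe inhibitors; HT1080 fibrosarcoma cells; overnight exposure; toxic or luciferase-blocking compounds were not removed from the actives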
* = called active by the depositor.

How did O=C(c1cc(-c2ccco2)nn1-c1cccc(Cl)c1)N1CCCCC1 do in these assays?
WNV NS2B-NS3 inh: 0.29; Hsc70: -0.9%; MT1-MMP reporter: inactive

How did Cc1ccccc1-n1nnc2c(=O)oc3ccccc3c21 do in these assays?
WNV NS2B-NS3 inh: 0.52; Hsc70: -4.3%; MT1-MMP reporter: inactive

How did CCCOC(=O)c1cc2ccccc2oc1=O do in these assays?
WNV NS2B-NS3 inh: -0.98; Hsc70: -11%; MT1-MMP reporter: inactive

What do the screens show for `c1ccc(-c2n[nH]c(-c3ccccn3)n2)nc1`?
WNV NS2B-NS3 inh: 2.3; Hsc70: 0.9%; MT1-MMP reporter: inactive

What do the screens show for `Cc1ccc(S(=O)(=O)N(CC(=O)NCc2ccco2)Cc2ccc(F)cc2)cc1`?
Hsc70: 7.0%; MT1-MMP reporter: inactive

How did O=C(c1n[nH]c(=O)c2ccccc12)N1CCOCC1 do in these assays?
WNV NS2B-NS3 inh: -0.81; Hsc70: 0.6%; MT1-MMP reporter: inactive

Results for CS(=O)(=O)c1ccc(C(=O)NC2CCOC2=O)cc1 (stereo unspecified) ?
WNV NS2B-NS3 inh: -0.06; Hsc70: 5.9%; MT1-MMP reporter: inactive

What do the screens show for `Cc1ccc(-n2c(Cc3cccn3C)nnc2SCC(=O)Nc2cc(C)on2)cc1`?
WNV NS2B-NS3 inh: -0.28; Hsc70: -4.4%; MT1-MMP reporter: inactive

Results for CC1(C)CC(=O)c2cc(OCC(=O)N3CCCCCC3)ccc2O1 ?
Hsc70: -1.2%; MT1-MMP reporter: inactive

Results for COc1ccccc1N(CC(=O)Nc1cc(C)on1)S(=O)(=O)c1cccs1 ?
WNV NS2B-NS3 inh: -0.31; Hsc70: -7.4%; MT1-MMP reporter: inactive

Results for COc1ccc(C(C)=O)cc1COC(=O)c1c(C)noc1C ?
WNV NS2B-NS3 inh: 1.8; Hsc70: 0.0%; MT1-MMP reporter: inactive

Results for C/C(N)=C(/C#N)C(=O)CSc1nnc(Nc2cccc(C)c2)s1 ?
WNV NS2B-NS3 inh: 0.61; Hsc70: 1.1%; MT1-MMP reporter: inactive

What do the screens show for `COc1cccc(-n2c(SCc3c(C)noc3C)nnc2-c2cccc(S(=O)(=O)N(C)C)c2)c1`?
WNV NS2B-NS3 inh: 0.43; Hsc70: 3.4%; MT1-MMP reporter: inactive

Results for c1ccc2c(-c3ccncc3)c[nH]c2c1 ?
WNV NS2B-NS3 inh: 1.5; Hsc70: 2.7%; MT1-MMP reporter: inactive

Results for COc1ccc(-n2c(Cc3cccn3C)nnc2SCC(=O)Nc2cccc(Cl)c2)cc1 ?
WNV NS2B-NS3 inh: 0.46; Hsc70: 1.9%; MT1-MMP reporter: inactive

Results for C#CCOc1ccc(Cl)cc1/C=N/O ?
WNV NS2B-NS3 inh: 0.32; Hsc70: -1.4%; MT1-MMP reporter: inactive

What do the screens show for `O=C(NCCN1C(=O)C2C3C=CC(C3)C2C1=O)Nc1cccnc1` (stereo unspecified)?
WNV NS2B-NS3 inh: 0.31; Hsc70: 2.9%; MT1-MMP reporter: inactive

Results for c1ccc2c(c1)OC(CCCN1CCCCC1)c1ccccc1S2 (stereo unspecified) ?
Hsc70: -1.8%; MT1-MMP reporter: inactive

How did CC(=O)CC1(C)OC(N)=C(C#N)C1(C#N)C#N (stereo unspecified) do in these assays?
WNV NS2B-NS3 inh: -0.71; Hsc70: -5.6%; MT1-MMP reporter: inactive

How did COC(=O)CSc1nnc(-c2cccc(NC(=O)c3ccc(C)cc3)c2)n1C do in these assays?
WNV NS2B-NS3 inh: -1.5; Hsc70: 2.1%; MT1-MMP reporter: inactive

What do the screens show for `CSCCC(NC(=O)C1CC1)c1nc2ccccc2[nH]1` (stereo unspecified)?
WNV NS2B-NS3 inh: 0.01; Hsc70: -2.5%; MT1-MMP reporter: inactive

What do the screens show for `CCOC(=O)C1CCc2sc(N)c(C#N)c21` (stereo unspecified)?
WNV NS2B-NS3 inh: 1.6; Hsc70: 2.1%; MT1-MMP reporter: inactive

Results for CN(C)CC(=O)Nc1nc(-c2ccccc2)cs1 ?
Hsc70: -4.1%; MT1-MMP reporter: inactive

What do the screens show for `COC(=O)CN1C(=O)C(O)(CC(=O)c2ccc(C)cc2)c2ccccc21` (stereo unspecified)?
WNV NS2B-NS3 inh: -1.3; Hsc70: 2.2%; MT1-MMP reporter: inactive

What do the screens show for `Cc1nn(Cc2ccccc2Cl)c2sc(C(=O)OC3CCCC3=O)cc12` (stereo unspecified)?
WNV NS2B-NS3 inh: -0.02; Hsc70: 3.1%; MT1-MMP reporter: inactive

What do the screens show for `CCOc1ccc(-n2c(N)c(C(=O)NCc3ccco3)c3nc4ccccc4nc32)cc1`?
Hsc70: 5.5%; MT1-MMP reporter: inactive

Results for O=C(Cn1nc(Cc2cccnc2)c2ccccc2c1=O)NCC1COc2ccccc2O1 (stereo unspecified) ?
WNV NS2B-NS3 inh: -0.53; Hsc70: 6.2%; MT1-MMP reporter: inactive

Results for Cc1ccc(C(C(=O)NC2CCCCC2)N(Cc2ccco2)C(=O)C2COc3ccccc3O2)o1 (stereo unspecified) ?
Hsc70: 0.4%; MT1-MMP reporter: inactive

Results for O=C(CCCCCN1C(=O)c2ccccc2C1=O)Nc1nccs1 ?
WNV NS2B-NS3 inh: 0.81; Hsc70: -5.6%; MT1-MMP reporter: inactive

How did CCSc1nnc(NC(=O)c2cc3c(s2)CCCC3)s1 do in these assays?
WNV NS2B-NS3 inh: -0.07; Hsc70: 3.3%; MT1-MMP reporter: inactive

Structures from the list above with an NH in an aromatic ring, in the order listed:
What do the screens show for `c1ccc(-c2n[nH]c(-c3ccccn3)n2)nc1`?
WNV NS2B-NS3 inh: 2.3; Hsc70: 0.9%; MT1-MMP reporter: inactive

How did O=C(c1n[nH]c(=O)c2ccccc12)N1CCOCC1 do in these assays?
WNV NS2B-NS3 inh: -0.81; Hsc70: 0.6%; MT1-MMP reporter: inactive

Results for c1ccc2c(-c3ccncc3)c[nH]c2c1 ?
WNV NS2B-NS3 inh: 1.5; Hsc70: 2.7%; MT1-MMP reporter: inactive

What do the screens show for `CSCCC(NC(=O)C1CC1)c1nc2ccccc2[nH]1` (stereo unspecified)?
WNV NS2B-NS3 inh: 0.01; Hsc70: -2.5%; MT1-MMP reporter: inactive

Additional compounds:
How did COC(=O)[C@H](Cc1ccccc1)NC(=O)NCc1ccccc1OC do in these assays?
Hsc70: 1.6%; MT1-MMP reporter: inactive

How did CCOC(=O)/C(=C/Nc1ccccc1)[N+](=O)[O-] do in these assays?
Hsc70: 2.7%; MT1-MMP reporter: inactive

Results for CC(C)(C)OC(=O)NCCc1nnc(SCC(=O)Nc2cccc(Cl)c2)o1 ?
WNV NS2B-NS3 inh: -0.16; Hsc70: -12%; MT1-MMP reporter: inactive

What do the screens show for `CC1(O)c2ccccc2C(=O)N1CCc1ccccc1F` (stereo unspecified)?
WNV NS2B-NS3 inh: 0.41; Hsc70: -5.8%; MT1-MMP reporter: inactive

Results for Cn1c(C(=O)N2CCCC(C(=O)NCc3cccs3)C2)cc2sccc21 (stereo unspecified) ?
WNV NS2B-NS3 inh: -0.006; Hsc70: 7.9%; MT1-MMP reporter: inactive

Results for CCN(CCCNC(=O)CCCN1C(=O)COc2ccc(C)cc21)c1cccc(C)c1 ?
WNV NS2B-NS3 inh: 0.41; Hsc70: -4.1%; MT1-MMP reporter: inactive

How did CN(C)S(=O)(=O)c1ccc(N2CCCC2)c(C(=O)Nc2ccccc2N2CCOCC2)c1 do in these assays?
WNV NS2B-NS3 inh: 0.05; Hsc70: 10%; MT1-MMP reporter: inactive

How did CCn1cc(C(=O)O)c(=O)c2cc3c(cc21)OCO3 do in these assays?
WNV NS2B-NS3 inh: 1.7; Hsc70: -0.9%; MT1-MMP reporter: inactive

Results for COc1ccccc1C1CC(c2ccccc2)Nc2ncnn21 (stereo unspecified) ?
WNV NS2B-NS3 inh: -0.2; Hsc70: 6.3%; MT1-MMP reporter: inactive

Results for Cc1cc2c(C)nc3ccccc3c2o1 ?
Hsc70: -5.1%; MT1-MMP reporter: inactive

Results for O=C(NCc1ccco1)C1CCCN1C(=O)NCc1ccccc1 (stereo unspecified) ?
WNV NS2B-NS3 inh: 0.01; Hsc70: 0.9%; MT1-MMP reporter: inactive

What do the screens show for `C=CCOc1cccc(C2C(C(=O)c3ccc(C)o3)=C(O)C(=O)N2Cc2ccncc2)c1` (stereo unspecified)?
WNV NS2B-NS3 inh: 1.1; Hsc70: 1.8%; MT1-MMP reporter: inactive

How did Cc1cccc(C)c1OCc1nnc(SCC(=O)Nc2nccs2)o1 do in these assays?
WNV NS2B-NS3 inh: 0.97; Hsc70: 3.2%; MT1-MMP reporter: inactive

How did CCn1c(SCC(=O)Nc2ccc(N(C)C)cc2)nnc1-c1cccc(C)c1 do in these assays?
WNV NS2B-NS3 inh: -1; Hsc70: 0.8%; MT1-MMP reporter: inactive

What do the screens show for `O=C(c1nc(-c2ccccc2)n(-c2ccccc2)n1)N1CCN(S(=O)(=O)c2ccccc2)CC1`?
WNV NS2B-NS3 inh: -0.63; Hsc70: 3.6%; MT1-MMP reporter: inactive

What do the screens show for `CCOc1cc(NS(=O)(=O)c2ccc(OC)cc2)c(OCC)cc1NC(=O)c1ccco1`?
Hsc70: 2.6%; MT1-MMP reporter: inactive

How did CCCCCCn1c(SCC(=O)Nc2cc(C)on2)nc2ccccc2c1=O do in these assays?
WNV NS2B-NS3 inh: 0.0023; Hsc70: 5.6%; MT1-MMP reporter: inactive

How did CCOc1ccccc1NC(=O)Cn1nnc(C(=O)Nc2ccccc2Cl)c1N do in these assays?
WNV NS2B-NS3 inh: -1.3; Hsc70: -2.2%; MT1-MMP reporter: inactive

Results for COc1ccc(-c2nnc(SCC(=O)c3cccs3)o2)c(OC)c1 ?
WNV NS2B-NS3 inh: -0.83; Hsc70: -7.0%; MT1-MMP reporter: inactive

How did COC(=O)c1oc2ccc(Cl)cc2c1NC(C)=O do in these assays?
WNV NS2B-NS3 inh: -1.3; Hsc70: 4.0%; MT1-MMP reporter: inactive

What do the screens show for `COc1ccc(-c2nc(C#N)c(NC(C)C)o2)cc1`?
WNV NS2B-NS3 inh: 1.1; Hsc70: -3.6%; MT1-MMP reporter: inactive

What do the screens show for `COc1ccc(CCNc2ccc(C)cc2)cc1`?
Hsc70: 7.1%; MT1-MMP reporter: inactive

How did Cc1ccc2cc(C(c3nnnn3Cc3ccccc3)N3CCc4ccccc43)c(=O)[nH]c2c1 (stereo unspecified) do in these assays?
Hsc70: -14%; MT1-MMP reporter: inactive

Results for Cc1ccc(C(=O)COC(=O)CCc2nc3ccccc3[nH]c2=O)cc1C ?
WNV NS2B-NS3 inh: 0.55; Hsc70: 0.1%; MT1-MMP reporter: inactive

Results for O=C(O)c1cccc(Cn2cc(Cl)cn2)c1 ?
WNV NS2B-NS3 inh: -0.62; Hsc70: 3.5%; MT1-MMP reporter: inactive

What do the screens show for `Cc1cc2nc(C(F)(F)F)[nH]c(=O)n2n1`?
WNV NS2B-NS3 inh: -0.75; Hsc70: -5.0%; MT1-MMP reporter: inactive

How did CC1=NN(/C(=N\c2nnc(C)s2)Nc2ccccc2)[C@H](c2cccc3ccccc23)S1 do in these assays?
Hsc70: -3.1%; MT1-MMP reporter: inactive

What do the screens show for `C=CCNc1oc(-c2cccs2)nc1C#N`?
Hsc70: 2.2%; MT1-MMP reporter: inactive

How did O=c1c2c(-c3cccs3)csc2[nH]c(=S)n1-c1ccccc1 do in these assays?
Hsc70: -0.3%; MT1-MMP reporter: inactive

What do the screens show for `C=CCc1c(C)nc(C)nc1N/N=C/c1ccc(F)cc1`?
Hsc70: -0.5%; MT1-MMP reporter: inactive

Looked up by compound from the list above (2):
What do the screens show for `CCOc1cc(NS(=O)(=O)c2ccc(OC)cc2)c(OCC)cc1NC(=O)c1ccco1`?
Hsc70: 2.6%; MT1-MMP reporter: inactive

How did COC(=O)c1oc2ccc(Cl)cc2c1NC(C)=O do in these assays?
WNV NS2B-NS3 inh: -1.3; Hsc70: 4.0%; MT1-MMP reporter: inactive

Next structures follow:
What do the screens show for `Cc1[nH]c2ccccc2c1C(c1ccccn1)N1CCC(C(N)=O)CC1` (stereo unspecified)?
WNV NS2B-NS3 inh: -0.52; Hsc70: -7.4%; MT1-MMP reporter: inactive

What do the screens show for `N#Cc1c2c(c(NCc3ccco3)n3c1nc1ccccc13)CCC2`?
WNV NS2B-NS3 inh: -0.3; Hsc70: -9.5%; MT1-MMP reporter: inactive

What do the screens show for `CCCCOc1nc2ccccc2nc1C(C#N)S(=O)(=O)c1ccccc1` (stereo unspecified)?
WNV NS2B-NS3 inh: 1.5; Hsc70: -4.9%; MT1-MMP reporter: inactive

What do the screens show for `COc1ccc(N=CC2=C(O)c3ccccc3C2=O)c(OC)c1`?
Hsc70: 4.6%; MT1-MMP reporter: 0.79µM*

What do the screens show for `COc1ccc(C(=S)N2CCCCCC2)cc1`?
Hsc70: 0.6%; MT1-MMP reporter: inactive

Screens from PubChem BioAssay.

These rows are one share of the data (hit frequency here may not be typical).
